KCNQ2 inh – KCNQ2 potassium channel inhibitors, primary screen, cell-based, CHO-K1, FluxOR thallium flux, B-score (AID 2156) | hit rate 1.1% among 310,000 | B-score at 10 µM | 20 min; hits give low values; only compounds with negative scores are shown here; some inactives read as strong as hits;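 active means fluorescence ratio B-score at most minus 3 library SDs, with starting brightness B-score within 2 library SDs, cut at about -5.5 in these data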
Target sequence (O88943 whole entry, looked up): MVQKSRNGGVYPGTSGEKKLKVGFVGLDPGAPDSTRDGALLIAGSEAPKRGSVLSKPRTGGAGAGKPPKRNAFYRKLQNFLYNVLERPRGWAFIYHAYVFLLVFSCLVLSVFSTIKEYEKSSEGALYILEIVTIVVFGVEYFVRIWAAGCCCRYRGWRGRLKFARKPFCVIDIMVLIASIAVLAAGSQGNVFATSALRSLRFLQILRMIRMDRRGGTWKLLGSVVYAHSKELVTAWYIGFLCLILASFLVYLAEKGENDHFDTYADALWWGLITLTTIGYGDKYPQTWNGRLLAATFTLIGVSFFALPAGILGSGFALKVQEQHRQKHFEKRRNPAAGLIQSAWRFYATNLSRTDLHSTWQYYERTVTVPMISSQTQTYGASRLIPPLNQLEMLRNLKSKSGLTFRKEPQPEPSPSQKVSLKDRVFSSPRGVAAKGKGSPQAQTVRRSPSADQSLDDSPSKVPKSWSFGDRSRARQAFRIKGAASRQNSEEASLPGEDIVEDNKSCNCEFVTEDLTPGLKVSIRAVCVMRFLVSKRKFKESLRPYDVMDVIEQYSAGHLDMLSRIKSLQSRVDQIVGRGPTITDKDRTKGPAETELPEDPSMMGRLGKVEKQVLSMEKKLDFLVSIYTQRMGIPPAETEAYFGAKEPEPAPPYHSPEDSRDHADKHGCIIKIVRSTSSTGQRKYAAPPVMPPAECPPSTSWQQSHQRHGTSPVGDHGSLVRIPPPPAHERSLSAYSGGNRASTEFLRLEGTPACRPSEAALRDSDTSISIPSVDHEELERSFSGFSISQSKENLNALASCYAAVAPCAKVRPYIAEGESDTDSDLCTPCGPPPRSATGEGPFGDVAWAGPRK
KCNQ2 inh baseline – second read-out of KCNQ2 inh, no call of its own (marks repeat the call); B-score; measured here: initial fluorescence intensity artifact check;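 brightness before thallium and not channel activity; 0 = typical well and far values either way flag optical interference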
An asterisk follows results filed as active; i = inactive. Some of the compounds tested. The share of hits here may be higher or lower than overall.

SMILES,KCNQ2 inh,KCNQ2 inh baseline
Cc1ccc(CNC(=O)c2ccc3c(=O)c(O)c(-c4ccc(C)cc4)[nH]c3c2)cc1,i,-0.53
CCCN(CCC)C(=O)c1ccc2nc(-c3ccc(OC)c(OC)c3)c(-c3ccc(OC)c(OC)c3)nc2c1,i,-0.08
CCOc1ccc(/C=N/NC(=O)C2(O)c3ccccc3-c3ccccc32)cc1,i,-0.05
O=C(NCCc1ccccc1)c1ccc([N+](=O)[O-])cc1,i,-0.3
COC(=O)CCCCCN1C(=O)/C(=C\c2ccncc2)SC1=S,i,-0.13
COc1cc(OC)cc(C(=O)OCc2cc3ccccc3[nH]c2=O)c1,i,-0.47
Cc1onc(C(=O)NN)c1C(=O)N1CCN(C(c2ccccc2)c2ccccc2)CC1,i,0.14
CCOc1ccc(S(=O)(=O)N2CCC(C(=O)NC3CCCCC3)CC2)cc1,i,1.4

Gathered by group: the entries above with sulfur
SMILES,KCNQ2 inh,KCNQ2 inh baseline
COC(=O)CCCCCN1C(=O)/C(=C\c2ccncc2)SC1=S,i,-0.13
CCOc1ccc(S(=O)(=O)N2CCC(C(=O)NC3CCCCC3)CC2)cc1,i,1.4

Later entries.
SMILES,KCNQ2 inh,KCNQ2 inh baseline
NC(=S)N1OC[C@@H]2COc3ccc4ccccc4c3[C@@H]21,i,-1.07
CC(C)(C)c1ccc(OCC(O)CSc2ncn[nH]2)cc1 (stereo unspecified),i,2.31
CC(N=c1ccccn1C(=O)Nc1cccc(C(F)(F)F)c1)c1ccco1 (stereo unspecified),i,0.49
Cc1cc(C)n(-c2nc3ccccc3nc2N2CCOCC2)n1,i,0.21
COc1ccc(/C=C/C(=O)NCC(=O)N/N=C(/C)c2ccco2)cc1,i,-0.51
O=C(CSc1nnc(NC(=O)c2ccccc2)s1)NCC1CCCO1 (stereo unspecified),i,-0.89
COc1cc(NS(=O)(=O)c2c(C(=O)N3CCOCC3)c(C)n(C)c2C)cc(OC)c1OC,i,0.28
COc1cccc(/C=N/c2oc(-c3ccccc3)cc2C#N)c1O,i,-1.02

Profiles from above. Order of screens: KCNQ2 inh, KCNQ2 inh baseline
COc1ccc(/C=C/C(=O)NCC(=O)N/N=C(/C)c2ccco2)cc1 reads i, -0.51
O=C(CSc1nnc(NC(=O)c2ccccc2)s1)NCC1CCCO1 (stereo unspecified) reads i, -0.89
COc1cccc(/C=N/c2oc(-c3ccccc3)cc2C#N)c1O reads i, -1.02
COc1cc(NS(=O)(=O)c2c(C(=O)N3CCOCC3)c(C)n(C)c2C)cc(OC)c1OC reads i, 0.28
CC(C)(C)c1ccc(OCC(O)CSc2ncn[nH]2)cc1 (stereo unspecified) reads i, 2.31

(further entries)
SMILES,KCNQ2 inh,KCNQ2 inh baseline
COC(=O)c1ccc2c(=O)n(Cc3ccc(C(=O)NC4CCCC4)cc3)c(=S)[nH]c2c1,i,-0.49
CCOC(=O)c1c(C)[nH]c(C)c1S(=O)(=O)N(C)CC(=O)Nc1cccc(C)n1,i,0.28
COc1ccc(CN(CCCN2CCOCC2)C(=O)Nc2ccccc2)cc1OC,i,-1.26
COc1cc(OC)cc(C(=O)Nc2ccc(S(=O)(=O)Nc3cnc4ccccc4n3)cc2)c1,i,-0.14
COCC(=O)N(Cc1cc2ccccc2[nH]c1=O)c1ccccc1OC,i,-0.42
Cc1ccc(CN2CC(C(=O)N3CCN(S(=O)(=O)c4c(F)cccc4F)CC3)CC2=O)cc1 (stereo unspecified),i,0.01
COC(=O)c1ccccc1NC(=O)C(CCS(C)(=O)=O)NC(C)=O (stereo unspecified),i,-0.26
Nc1cc(=O)[nH]c(=O)n1-c1cccc(F)c1,i,-0.46
Cc1nn(-c2ccccc2)c(Cl)c1/C=N/NC(=O)CNc1n[nH]c(=O)[nH]c1=O,i,0.12
O=C(CNC(=O)c1ccc(Br)cc1)OCC(=O)c1ccccc1,i,-1.82
c1ccc2c(C[n+]3csc4ccccc43)cccc2c1,i,-0.04
CCOc1cc(C(=O)N2CCC(CC3CC(c4ccc(Cl)cc4)=NO3)(C(=O)NCC3CCCCC3)CC2)cc(OCC)c1OCC (stereo unspecified),i,0.54
Cc1ccccc1CN(C)CC(=O)Nc1cccc(S(=O)(=O)N(C)c2ccccc2)c1,i,-0.64
O=C(Cc1cnc2ncnn2c1)N1CCc2c([nH]c3ccccc23)C1c1ccccc1F (stereo unspecified),i,1.45
Cn1nc(C(=O)Nc2ccccc2N2CCCC2)c2ccccc2c1=O,-5.64*,0.11*
Cc1cc(C)nc(Nc2ncc(O)n2-c2ccc(C)c(C)c2)n1,i,-0.6
CCN1C(=O)CCC(C(=O)O)C1c1ccc(OC)cc1 (stereo unspecified),i,-1.44
CC(Nc1nc(-c2ccccc2O)nc2ccccc12)c1ccccc1 (stereo unspecified),i,1.84
O=C(Nc1nnc(S(=O)(=O)N2CCCCC2)s1)c1cccc(Br)c1,i,0.5
CCOC(=O)NC(=O)CSc1nnnn1-c1ccccc1,i,-0.09
O=C(COc1ccccc1)NCCn1ccc2ccccc21,i,0.82
O=C(N/N=C\c1ccc(S(=O)(=O)O)o1)c1ccc2c(c1)OCO2,i,1.17
COc1ccc(C2C(Oc3ccccc3)C(=O)N2c2cc(C)ccc2C)cc1OC (stereo unspecified),i,0.28
O=C(NCc1cccs1)C1CCN(S(=O)(=O)N2CCCC2)CC1,i,1.03
CSc1cccc(NC(=S)N(CCCN2CCCC(C)C2)Cc2cccs2)c1 (stereo unspecified),i,1.77
CC(=O)Nc1ccc(/C=N/NS(=O)(=O)c2cc(C)ccc2C)cc1,i,0.95
O=C(Nc1ccc2ccccc2c1)Nc1ccc2snnc2c1,i,3.49
COc1ccc(CNC(=O)C2CCC(CNc3c(N4CCC(C)CC4)c(=O)c3=O)CC2)cc1 (stereo unspecified),i,-0.17
c1ccc(-c2cnc(CSc3nnc4ccccn34)o2)cc1,i,-0.15
CC1(C)N=C(SCC(=O)Nc2ccc(Cl)cc2Cl)C(c2ccccc2)=N1,i,-0.65
COc1ccc(Cl)cc1C(=O)NC1=NCCS1,i,2.02
O=C(CCc1nc(-c2ccccc2Cl)no1)NCc1ccco1,i,0.09
Cc1ccc(-c2nc(C(=O)NC3CCCCCC3)no2)cc1,i,-0.01
Cc1cc(C(=O)N/N=C/c2cccc3ccccc23)c(C)o1,i,1.29
Cc1cc(C)c(NC(=S)N(CCN2CCCCC2)Cc2ccco2)c(C)c1,i,-0.74
Cc1cc(C)c2nc(-c3ccccn3)cc(C(=O)N3CCCC3)c2c1,i,1.71
Cc1ccc(S(=O)(=O)NC2c3cccc4cccc(c34)C2Sc2ncccn2)cc1 (stereo unspecified),-7.05*,0.12*
COc1ccc(NS(=O)(=O)c2cc(NC(=O)c3cnc(C)cn3)ccc2N2CCCC2)cc1,i,1.16
Cc1ccc(C(=O)CCS(=O)(=O)c2ccc(F)cc2)cc1,-6.29*,-0.05*
CCOC(=O)N1C=CC=C[C@@H]2[C@@H](N3C(=O)c4ccccc4C3=O)C(=O)N21,i,0.12
Cc1ccc(C)c(C(=O)COC(=O)CN2C(=O)C3C4C=CC(C4)C3C2=O)c1 (stereo unspecified),i,0.14
O=C(CSc1ncnc2c1oc1ccccc12)Nc1ccccc1F,i,-0.45
COc1ccc(C2C(C(=O)c3ccccc3)=C(C)Nc3nc4ccccc4n32)cc1OC (stereo unspecified),i,0.67
CC(C(=O)NCc1ccco1)n1ccc2cc(S(=O)(=O)N3CCCCC3)ccc21 (stereo unspecified),i,-1.08
N#Cc1c(-n2ccnc2)cccc1-n1ccnc1,i,0.75
Cn1cccc1/C=C(/C#N)c1ccc(F)cc1,i,0.73
O=C(CN1C(=O)/C(=C\c2cccc(Br)c2)Oc2ccccc21)NCCCN1CCOCC1,i,-0.51
CC1(C)OC2OC(COC(=O)c3ccc([N+](=O)[O-])cc3)C3OC(C)(C)OC3C2O1 (stereo unspecified),i,-0.02
N#C/C(=C(/O)c1ccc(F)cc1)c1nc2ccccc2s1,i,-0.24
CC(C)(C)C(=O)c1sc2nc(-c3cccs3)cc(C(F)(F)F)c2c1N,i,0.88
Cc1nn(CC(C)C)c2sc(C(=O)NC3CC(C)(C)NC(C)(C)C3)cc12,i,0.62
CCc1nnc(NC(=O)c2cc(-c3ccccn3)nc3ccc(Br)cc23)s1,i,0.33
CCOC(=O)COC(=O)c1ccc(O)cc1,i,3.24
Cc1cc(C)nc(N/N=C/c2cc(C)n(CC(F)(F)F)c2C)n1,i,-1.12
Cc1nc(Nc2ccc3c(c2)OCCO3)c2oc3ccccc3c2n1,-8.05*,-0.72*
Cc1ccc2c(c1)CCCN2C(=O)NC1CCCCC1,i,-0.68

Further entries:
SMILES,KCNQ2 inh,KCNQ2 inh baseline
Nc1nc(N)c(N=Nc2ccc(S(N)(=O)=O)cc2)c(=O)[nH]1,i,-0.07
Cc1cccc(NC(=S)N2N=CCC2c2ccccc2)c1 (stereo unspecified),i,0.27
Cc1ccccc1CN1CCN(C/C=C/c2ccccc2)CC1,i,-0.01
Cc1ccc(CN2CCN(Cc3ccccc3C(F)(F)F)CC2)cc1,i,1.39
COCc1cc(C)nc2sc(C(=O)N3CCCCC3)c(N)c12,i,-2.34
COC(=O)c1c(C)oc(C)c1S(=O)(=O)NCc1ccco1,i,0.53
CCCCNC(=O)Cn1c(=O)c2c(ncn2CCC(C)C)n(Cc2ccccc2)c1=O,i,-3.09
O=C(NC1CCCC1)C(c1ccncc1)N(Cc1ccccc1)C(=O)c1ccc(-c2ccccc2)[nH]1 (stereo unspecified),i,1.3
Cc1cccc(-c2nnc(-c3ccccc3)o2)c1,i,1.53
CCCC(=O)Nc1nnc(SCC(=O)Nc2ccc3c(c2)OCO3)s1,i,0.55
C=CCNC(=S)NNc1nc2c(c(=O)[nH]1)C1(CCCC1)Cc1ccccc1-2,i,-0.09
CCn1c(COc2ccccc2Cl)nnc1SCC(=O)Nc1ncccc1C,i,0.04
Cc1ccc(NCc2n[nH]c(=S)n2Cc2ccccc2)cc1Cl,i,-0.23
CCCCN(C)C1CCN(C(=S)Nc2ccc(OCC)cc2)CC1,i,1.98
Cc1ccc(NC(=O)CSc2nc3ccccc3c3nc4ccccc4n23)cc1,i,0.04
CSc1ccc(/C=N/n2c(COc3ccccc3)n[nH]c2=S)cc1,i,-1.75
COc1ccc(/C=N/NC(=O)c2cccnc2)cc1CN1CCCc2ccccc21,i,-0.19
COc1cc(NC(=O)c2cccc(Cl)c2)c(OC)cc1NC(=O)CN1CCCCC1,i,-1.16
Cc1ccc(NC(=O)CSc2nnc(-c3cccnc3)o2)c(C)c1,i,0.11
COc1cc(O)oc1C=Nc1ccc(Cl)cc1,i,-0.98
CCOc1ccc(Nc2nc(NCCN3CCOCC3)nc(OC)n2)cc1,i,1.01
CCn1c(SCC(=O)NC(C)c2ccccc2)nc2ccccc21 (stereo unspecified),i,1.73
CCOC(=O)C(Cc1ccccc1)NC(=O)CCc1c(C)nc2nc(C)nn2c1C (stereo unspecified),i,0.67
Cn1c2ccccc2c(=O)c2cc(C#Cc3ccc(N)cc3)ccc21,i,0.78
COc1cc(C(=O)N2CCCC(c3nc(-c4cccs4)no3)C2)cc(OC)c1OC (stereo unspecified),i,0.51
Cc1cc(C)cc(NC(=S)N2CC(C)OC(C)C2)c1 (stereo unspecified),i,0.15
COc1ccc(-c2ccc(-c3nc4ccc(C)cn4c3NC3CCCCC3)cc2OC)cc1,i,-1.28
CCN(CC)c1ccc(/C=N/NC(=O)c2ccc3nc[nH]c3c2)c(O)c1,i,0.86
CC1CN(S(=O)(=O)c2ccc(Cl)c(S(=O)(=O)N3CC(C)OC(C)C3)c2)CC(C)O1 (stereo unspecified),i,-2.28
Cn1ccnc1SCc1cn2ccccc2n1,i,-0.8
CC(=O)C1=C(C)NC(=O)CC1c1ccc(F)cc1 (stereo unspecified),i,-0.13
O=C(COC(=O)Cc1c(F)cccc1Cl)NC(=O)c1ccccc1,i,1.59
CCn1cc(C(=O)O)c(=O)c2cc(F)c(N3CCN(C)CC3)cc21,i,0.01
COc1ccc(-c2cc(C(=O)OCC(=O)Nc3ccc4c(c3)OCO4)c3ccccc3n2)cc1,i,0.06
COc1ccc(-c2csc3ncnc(N4CCN(c5cccc(Cl)c5)CC4)c23)cc1,-6.07*,0.8*
COc1cc(C(=O)NNC(=O)c2ccc(NC(=O)C(C)(C)C)cc2)cc(OC)c1OC,i,0.02
CN(Cc1ccccn1)C(=O)CC1C(=O)NCCN1Cc1ccc(F)cc1Cl (stereo unspecified),i,-0.99
O=C(COC(=O)Cc1c(Cl)cccc1Cl)NCCC1=CCCCC1,i,0.16
O=C(Nc1c(Cl)ccc2nsnc12)c1cccnc1,i,0.72
Cc1c(-c2ccccc2)cnc2c(C)cccc12,i,0.95
COCCN1C(=O)c2cc(C(=O)Nc3ccc(C)c(F)c3)ccc2C1Nc1ccc(C)c(F)c1 (stereo unspecified),i,-1.73
Cc1ccc(NC(=O)c2cnc(N3CCN(c4ccccn4)CC3)c3ccccc23)c(Br)c1,i,1.17
O=C(C(Cc1ccccc1)n1cccc1)N1CCCCCC1 (stereo unspecified),i,-0.98
Cc1cc(Cl)n2c(nc3ccccc32)c1C#N,i,-2.31

Bioassay records (PubChem)
